Assay outcomes (PubChem)
HSV augment = increases HSV replication in cells | 220,000 tested, 0.005% active | maximum fold increase | HSV replication augmentation in cells, fold increase;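 active = peak rise of 1.5-fold or more in the series; tested in PC3 cells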;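 also: first round at 10 µM; read as green reporter fluorescence; hits show the peak of a series up to 25 µM; 1 = signal of infected wells without compound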
INS promoter inh = TRM-6 insulin promoter activity inhibition | TRM-6 cells (human fetal islet line), insulin promoter-eGFP reporter, imaging; reporter expression induced with tamoxifen | AID 1273 | 130,000 tested, 0.9% active | inhibition, % at 2 µM;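 active = inhibition above the mean plus 3 SD, with well images judged a real hit on visual review, cut at about 60% in these data, passing the limit was not always enough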
GALR2 ag = activates the human galanin receptor 2; GALR2-expressing cells, agonist activation read-out; AID 803; activation, %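 (tested at 5 µM)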; 140,000 tested, 0.48% active; O43603;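 active = above mean plus 3 SD of all compounds, about 5% in these data, not always enough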;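 also: 0% = vehicle buffer wells and 100% = reference agonist at full effect; tested in CHO reporter cells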
Target sequence (O43603 whole entry, looked up): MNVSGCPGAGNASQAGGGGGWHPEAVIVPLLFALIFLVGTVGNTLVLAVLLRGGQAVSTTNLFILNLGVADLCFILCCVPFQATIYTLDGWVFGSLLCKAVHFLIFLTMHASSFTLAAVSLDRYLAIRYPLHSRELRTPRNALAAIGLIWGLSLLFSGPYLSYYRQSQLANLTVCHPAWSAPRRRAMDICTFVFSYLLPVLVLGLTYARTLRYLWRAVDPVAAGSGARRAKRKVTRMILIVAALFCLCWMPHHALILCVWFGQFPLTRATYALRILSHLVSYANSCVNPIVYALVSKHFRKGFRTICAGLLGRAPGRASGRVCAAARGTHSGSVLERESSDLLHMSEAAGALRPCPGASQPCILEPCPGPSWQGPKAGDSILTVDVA
RGS16-Gao = regulators of human RGS16-Galphao interaction | O15492+P09471 | bead-based flow cytometry RGS16-Galphao binding, fluorescence; actives lie on both sides | binding response (% of control), % at 10 µM | 220,000 tested, 0.38% active | AID 1441;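 active = below 25% or above 175%, edge rows of some plates excepted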;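 also: Galphao activated by GDP with aluminum fluoride before binding; 100% = wells without compound and 0% = beads without RGS; some results beyond the cut were filed as inactive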
Target sequence (O15492 whole entry, looked up): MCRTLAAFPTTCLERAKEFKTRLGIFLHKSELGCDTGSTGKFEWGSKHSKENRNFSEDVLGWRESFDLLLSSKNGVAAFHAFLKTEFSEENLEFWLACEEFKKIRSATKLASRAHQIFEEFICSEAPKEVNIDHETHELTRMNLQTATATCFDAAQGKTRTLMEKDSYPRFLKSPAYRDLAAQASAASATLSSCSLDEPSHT
Target sequence (P09471 whole entry, looked up): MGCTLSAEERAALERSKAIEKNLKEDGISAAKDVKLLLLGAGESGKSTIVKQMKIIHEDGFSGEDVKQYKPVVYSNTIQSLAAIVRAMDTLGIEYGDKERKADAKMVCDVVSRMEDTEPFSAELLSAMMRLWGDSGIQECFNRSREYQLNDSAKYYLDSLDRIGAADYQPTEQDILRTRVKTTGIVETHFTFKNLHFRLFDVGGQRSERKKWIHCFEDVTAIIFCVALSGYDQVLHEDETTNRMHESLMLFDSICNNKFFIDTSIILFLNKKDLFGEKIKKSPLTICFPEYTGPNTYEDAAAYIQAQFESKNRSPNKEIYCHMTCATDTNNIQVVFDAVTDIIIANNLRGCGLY
PKD1 inh = blocks activity of human protein kinase D1 | 200,000 tested, 0.056% active | inhibition, %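 (about 10 µM by stock and volumes)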 | AID 797 | PKD1 kinase fluorescence polarization assay | Q15139;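 active = inhibition of 50% or more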;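 also: controls were vehicle for no effect and a reference inhibitor for full effect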
INS promoter inh cell count = second read-out of INS promoter inh, no call of its own (marks repeat the call); normalized cell count, %; measured here: cell count, toxicity; reference of the scale not given here;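 cells exposed to compound for 48 h; stained nuclei by imaging scaled within each plate; lower means fewer cells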
HSV augment primary fold = also measured in HSV augment; calls as there; fold increase; compound at 10 µM; measured here: primary screen fold increase 10 uM; tested in PC3 cells;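 GFP signal in the first replicate; 1 = infected wells without compound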
An asterisk follows results filed as active; i = inactive; . = no result given.

SMILES	HSV augment	HSV augment primary fold	INS promoter inh	INS promoter inh cell count	GALR2 ag	RGS16-Gao	PKD1 inh
Cc1ccc(C(=O)NCC(=O)OCC(=O)Nc2cc(C)c(C)cc2[N+](=O)[O-])cc1	i	0.89	11.1	152.4	1.0	110.6	-9.0
CN(C)CCCNCCCNC(=O)c1ccco1	i	1.01	.	.	0.1	103.3	-3.5
O=C(c1ccc(Cl)s1)N1CCN(c2nc3ccccc3s2)CC1	i	0.82	.	.	0.0	101.1	-7.4
Cc1sc(NC(=O)Cc2ccc3c(c2)OCO3)nc1-c1ccc2c(c1)CCN2C(=O)c1ccccc1F	i	0.84	-5.4	183.3	-0.6	97.9	-6.0
Cc1noc(N)c1C(=O)Nc1ccc(F)cc1	i	0.84	.	.	-1.3	97.8	0.9
CCCn1nc(C(=O)Nc2cc(C(=O)OC)ccc2C)c2ccccc2c1=O	i	1.12	.	.	-2.0	108.3	-6.3
COc1cc(CNc2ccc(N3CCCC3)cc2)cc(Cl)c1OC	i	0.88	.	.	.	82.4	-2.3
CC(=O)c1ccc(N/C=C\C(=O)c2ccc(C)cc2)cc1	i	0.88	.	.	.	107.7	4.1
Cc1cc(N2CCCC2)nc(-c2ccccc2O)n1	i	1.01	37.9	102.0	-2.8	106.6	-5.7
O=C(COC(=O)c1cccc(Cl)c1Cl)NCCN1C(=O)CSC1=O	i	0.96	10.5	125.2	-1.0	106.9	-7.5
C/C(Cn1nc([N+](=O)[O-])cc1C)=N\NC(=O)c1ccc(O)cc1O	i	1.06	.	.	-1.8	82.4	3.3
O=C(Cc1ccccc1)N1CCC(c2ccccc2)C1 (centres undefined)	i	0.96	.	.	.	102.2	.
COc1cc(/C=N/NC(=O)COc2cccc(F)c2)ccc1OS(=O)(=O)c1ccc(C)cc1	i	0.79	13.5	137.4	-0.4	62.3	-11.6
Cc1cccc(C(=O)NNC(=O)c2ccc(Br)cc2)c1	i	0.96	.	.	.	105.7	0.2
O=C(Cn1cncn1)NCCCc1ccccc1	i	1.04	41.7	78.2	.	52.1	-9.8
CCCCCCCn1c2c(c(=N)c3c1CCC3)CCCC2	i	0.67	-111.1	24.1	.	108.7	11.0
COc1ccccc1N(CC(=O)NC1CCCCC1)C(=O)CCC(=O)Nc1ccccn1	i	0.81	.	.	-1.1	103.5	4.3
COc1cc(-n2c(=O)c3ccccc3n(CC(=O)OCc3ccccc3)c2=O)cc(OC)c1OC	i	0.97	-28.6	121.3	.	100.2	-1.6
CCOC(=O)C(=N/O)/C(C)=N/NC(C)=O	i	0.96	.	.	.	101.0	8.6
O=C(/C(=N/O)n1cncn1)c1ccccc1Cl	i	0.98	.	.	.	101.0	.
CCN(CC)CCOCCOc1ccccc1F	i	0.91	3.5	118.7	-0.6	103.2	-3.9
Nc1nnnn1NCc1cccc(OCc2ccccc2)c1	i	0.97	-84.4	164.5	-2.5	100.2	-3.8
C=CCn1c(SCC(=O)NCc2ccco2)nc2ccccc2c1=O	i	0.8	.	.	.	97.9	1.5
O=C(COC(=O)CCC(=O)c1ccc2c(c1)OCCO2)NCc1ccc2c(c1)OCO2	i	0.95	27.3	114.3	0.4	104.2	-3.2
CCOc1ccc(/C=C/[N+](=O)[O-])c2ccccc12	i	0.44	11.4	126.3	-2.7	88.7	7.0
SMILES	HSV augment	HSV augment primary fold	INS promoter inh	INS promoter inh cell count	GALR2 ag	RGS16-Gao	PKD1 inh
FC(F)(F)c1cc(-c2ccccc2)nc(-n2cncn2)n1	i	0.98	.	.	-0.9	101.3	-9.5
COCCNCC(=O)Nc1ccc(C)c(S(=O)(=O)N2CCCCC2)c1	i	1.03	-66.7	132.3	.	101.9	-6.3
Cc1ccccc1N(CC(=O)NCc1ccncc1)S(C)(=O)=O	i	0.95	.	.	-4.1	110.9	-14.2
O=C(O)c1cc2ccccc2n1-c1ccccc1	i	0.9	-7.7	96.1	-2.2	79.3	-4.8
COC(=O)C1CCN(C(=O)COC(=O)c2n[nH]c3ccccc23)CC1	i	0.82	.	.	-0.3	90.6	-9.1
COc1cccc(N2CCN(C(=O)C3CCN(S(=O)(=O)c4cccs4)CC3)CC2)c1	i	0.96	50.0	94.3	.	96.9	0.9
CC/C(=N/N=C(\CC)c1ccccc1)c1ccccc1	i	0.97	11.1	113.7	-1.2	95.6	3.7
CN(C)c1nc(N)nc(CSc2nc3c(c(=O)n(C)c(=O)n3C)n2Cc2ccccc2F)n1	i	0.92	21.4	59.1	.	103.1	-0.1
CCOCCCNC(=O)C(NC(=O)c1ccc2c(c1)OCO2)c1ccc(Cl)cc1 (centres undefined)	i	0.96	10.0	168.3	.	106.8	-6.9
Cc1cc(/C=C(\C#N)C(=O)OCC#N)c(C)n1CC(C)C	i	1.18	23.5	121.9	.	104.1	-6.6
CCN(CC)CCN(Cc1cc2cc(C)ccc2[nH]c1=O)C(=O)Nc1ccccc1OC	i	0.85	6.5	131.6	-2.2	104.8	-15.1
COC(=O)c1c[nH]n2c(=O)c(C(C)C)c(C)nc12	i	0.96	.	.	.	99.1	-6.2
CC(C)(C)c1cc(C(=O)O)n[nH]1	i	1.2	-31.2	48.4	-1.9	105.7	-10.6
CCCc1cc(=O)[nH]c(SCc2cc(=O)oc3cc(C)c(C(C)C)cc23)n1	.	.	-23.1	83.3	-0.9	106.4	3.2
Cc1ccc2[nH]c(=O)c(CN(CCCN(C)C)C(=O)Nc3ccc(F)cc3)cc2c1	i	0.69	.	.	.	102.4	-0.9
N#C/C(C(N)=O)=c1/ccc2c(c1)N1C3=C(CCCC3)CC3CCCCC31N=2 (centres undefined)	i	0.99	.	.	0.8	98.5	-19.8
O=C(Nc1nnc(SCc2cccc(F)c2)s1)c1ccco1	i	1.17	-50.0	78.1	.	100.5	-7.4
CCCCOc1ccc(C)cc1CN(CCO)CCO	i	1	30.4	125.5	-0.6	100.2	-9.5
CNS(=O)(=O)c1cc(OCC(N)=O)c(C)cc1Cl	i	0.96	-22.2	101.6	-2.1	99.5	-6.0
C=CCn1c(SCC(=O)Nc2ccccc2CC)nnc1-c1ccncc1	i	1.17	.	.	-1.2	100.3	8.0
CC(C)Cn1c(=S)[nH]c2ccccc2c1=O	i	0.93	.	.	.	102.1	1.1
N#CC(c1ccc(=O)[nH]n1)c1ccc(Cl)cc1Cl (centres undefined)	i	0.88	-29.4	127.7	.	98.5	-5.8
O=C(CN1C(=O)c2ccccc2C1=O)N1CCN(c2ccccn2)CC1	i	1.06	39.5	103.8	-1.6	106.8	0.3
Cc1c(NC(=S)N/N=C/c2ccc(N(C)C)cc2)c(=O)n(-c2ccccc2)n1C	i	1.04	6.1	100.3	-0.3	99.9	-3.9
Cc1c(N=NC2=C(O)CC(C)(C)CC2=O)cc2c(c1[N+](=O)[O-])C(C)(C)CC2(C)C	i	0.81	.	.	.	99.3	.

Sorted by count of non-hydrogen atoms (descending): some entries from above.
SMILES	HSV augment	HSV augment primary fold	INS promoter inh	INS promoter inh cell count	GALR2 ag	RGS16-Gao	PKD1 inh
COc1cc(-n2c(=O)c3ccccc3n(CC(=O)OCc3ccccc3)c2=O)cc(OC)c1OC	i	0.97	-28.6	121.3	.	100.2	-1.6
CCCn1nc(C(=O)Nc2cc(C(=O)OC)ccc2C)c2ccccc2c1=O	i	1.12	.	.	-2.0	108.3	-6.3
Cc1ccccc1N(CC(=O)NCc1ccncc1)S(C)(=O)=O	i	0.95	.	.	-4.1	110.9	-14.2
Cc1cc(/C=C(\C#N)C(=O)OCC#N)c(C)n1CC(C)C	i	1.18	23.5	121.9	.	104.1	-6.6
Cc1cc(N2CCCC2)nc(-c2ccccc2O)n1	i	1.01	37.9	102.0	-2.8	106.6	-5.7
COC(=O)c1c[nH]n2c(=O)c(C(C)C)c(C)nc12	i	0.96	.	.	.	99.1	-6.2
CC(C)(C)c1cc(C(=O)O)n[nH]1	i	1.2	-31.2	48.4	-1.9	105.7	-10.6

(further entries)
SMILES	HSV augment	HSV augment primary fold	INS promoter inh	INS promoter inh cell count	GALR2 ag	RGS16-Gao	PKD1 inh
Cc1cc(N/N=C/c2ccccc2F)nc(NCc2ccccc2)n1	i	1.13	.	.	.	96.7	.
Cc1nc(-c2ccc(S(=O)(=O)Oc3ccccc3Cl)s2)cs1	i	1.26	.	.	.	95.6	.
CCN(CC(=O)NCc1ccccn1)S(=O)(=O)c1ccc(Cl)cc1	i	1.01	.	.	-0.3	110.0	5.4
CCCCC(CC)C(=O)NCC(C)NC(=O)C(CC)CCCC (centres undefined)	i	1.06	-66.2	71.7	-1.4	101.4	-7.6
COc1ccccc1CNC(=O)C/C(C)=N/NC(=O)COc1ccc(C)cc1Br	i	0.58	-76.9	113.0	-1.0	98.3	-6.2
CC(C)(C)C1CCC(=NNC(=O)CN(c2ccccc2)S(=O)(=O)c2ccccc2[N+](=O)[O-])CC1 (centres undefined)	i	1.04	31.2	84.6	-0.6	103.0	12.7
COc1ccc(OCc2nnc(SCc3ccc(C(=O)O)cc3)o2)cc1	i	0.99	35.7	98.7	.	112.6	-3.6
COC(=O)c1ccc(COc2ccc(C3C4=C(CCCC4=O)Nc4onc(C)c43)cc2)cc1 (centres undefined)	i	0.973	-18.4	110.9	1.4	100.7	0.2
CCCCNC(=S)N(C)/N=C/c1ccccc1C(=O)O	i	0.89	1.4	124.8	-2.3	100.9	3.1
Cc1cnc(NC(=O)CSc2c(Cl)cccc2Cl)s1	i	0.88	-34.8	129.2	-2.7	95.4	-1.2
COc1cc(OC)cc(C(=O)Nc2ccccc2NC(C)=O)c1	i	1.05	-18.2	101.1	-2.2	99.8	3.2
CC1(C)CC(=O)C2=C(C1)NC(=O)CC2c1cc2c(cc1Br)OCO2 (centres undefined)	i	0.99	.	.	0.4	94.8	5.4
COC(=O)c1sccc1NC(=S)N(C)C1CCCCC1	i	1	.	.	.	101.3	-5.5
O=C(CSc1ccc2nnc(-c3cccnc3)n2n1)NCC1CCCO1 (centres undefined)	i	1.09	.	.	-1.2	98.5	-9.7
COC(=O)c1c(F)c(F)c(N2CCOCC2)c(F)c1F	i	0.86	-106.1	73.5	-0.7	104.5	0.0
O=C(O)c1ccccc1NC(=S)NC(=O)c1cccc2ccccc12	i	1.08	.	.	.	109.2	-4.3
CCN(CC)Cc1c(CC(C)C)oc(C)c1C(=O)O	i	1.04	-18.8	63.4	-0.2	99.4	5.1
c1ccc2nc3c(cc2c1)CCCCC3	i	0.89	.	.	.	96.9	.
Cc1nc2ccccc2nc1SCC(=O)N1CCC(C)CC1	i	1.08	-20.0	106.9	-4.2	96.9	3.6
Fc1ccc(-c2cc(-c3ccccc3)nc(-n3cccn3)n2)cc1	i	0.92	-11.8	67.5	.	94.2	-2.4
COc1ccc(Cl)cc1NC(=O)Cc1c(F)cccc1Cl	i	0.76	-13.3	98.4	-1.1	81.9	6.8
C[C@H](NS(=O)(=O)c1ccc(Cl)cc1)C(=O)OCC(=O)NC(=O)Nc1ccc2c(c1)OCCO2	i	0.96	53.3	132.6	-0.3	111.8	-3.6
CCC(=O)c1ccc(N2CCCCC2)c(F)c1	i	0.97	14.3	93.8	.	99.7	0.8
CN1/C(=C\C=N\NC(=O)c2ccccc2Br)C(C)(C)c2ccccc21	i	0.97	.	.	-0.7	80.1	-1.7
COC(=O)c1ccc(COc2ccc(/C=N/NC(N)=S)cc2)o1	i	1.07	.	.	.	104.0	.
SMILES	HSV augment	HSV augment primary fold	INS promoter inh	INS promoter inh cell count	GALR2 ag	RGS16-Gao	PKD1 inh
CC1CN(C)C(C)c2c1oc1ccc(N)cc21 (centres undefined)	i	1.12	7.1	100.4	.	127.1	3.6
Cc1cccc(-n2c(SCC(=O)NCc3ccc4c(c3)OCO4)nc3ccccc3c2=O)c1	i	1	-38.5	101.7	0.3	554.6	-4.9
CCN(Cc1ccncc1)C(=O)CC1C(=O)NCCN1Cc1ccc(F)c(F)c1 (centres undefined)	i	0.89	.	.	.	100.0	3.4
COc1ccc(-c2c(C(C)=O)c(C)nc3sc4c(c23)NC(c2ccccc2)NC4=O)cc1 (centres undefined)	i	0.88	.	.	-1.8	96.3	-3.0
Cc1ccc2c(c1)nnn2C1CCN(S(=O)(=O)c2ccc(C(=O)N(C)C3CCCCC3)cc2)CC1	i	0.95	-50.0	86.7	1.2	110.6	1.3
COc1cc(S(=O)(=O)Nc2ccc(C)cc2)ccc1N=Cc1c(C)[nH]n(-c2ccccc2)c1=O	i	0.98	72.0*	133.7*	0.8	103.6	-5.3
CCCCCCC(=O)Nc1nc(C)c(-c2csc(Nc3ccccc3OC)n2)s1	i	0.85	20.0	36.8	0.3	77.6	13.1
